Calb FLC – C. albicans growth modulation with fluconazole; C. albicans CaCi-2 (fluconazole-resistant clinical isolate) + fluconazole, Alamar Blue growth, 48 h; growth inhibition, % (test concentration not listed); 300,000 compounds, 0.57% hits; AID 1979;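 active means most replicates above 75%; inconclusive means exactly half above 75%; inactive means most below 75%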;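 further: all wells also contain fluconazole at 8 µg/ml as a sub-toxic cotreatment; 0% = median of DMSO wells and 100% = median of geldanamycin control wells; wells of about 8 µL received 7.5 nL stock; the first replicate is given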
rRNA inh HTS – inhibitors of bacterial rRNA selective over humanized ribosomes | E. coli WT GFP vs humanized-ribosome RFP mutants, fluorescence, 24 h; stronger effect = lower value; DMSO median 0, no signal -100 | GFP signal change (wild-type ribosome), % (no concentration beside the values) | 350,000 compounds, 1.6% hits;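 active means significant combined selectivity score with lowered wild-type GFP, culture density cut under 30%, mutant RFP and density less affected; inactive means any of these conditions unmet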; further: one replicate is shown; some compounds called inactive have numbers as strong as hits
RanGTP-Imp inh – disruptors of Ran-importin-beta complex formation – biochemical, FRET, CFP-Ran, YFP-importin-beta, homogeneous, primary screen; cell-free CFP-Ran/YFP-importin-beta FRET ratio; inhibition, % (test concentration not listed); 300,000 compounds, 1.1% hits;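 active means most replicates above 15%; inconclusive means exactly half above 15%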;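 further: 0% = DMSO wells and 100% = Ran loaded with GDP instead of GTP; wells of about 40 µL received 100 nL stock; the first replicate is given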
Vif TR-FRET – HIV-1 Vif–A3G interaction blockers – biochemical, TR-FRET, GST-Vif 1-94, biotin-A3G peptide, dose response retest, primary screen (AID 1117319) | TR-FRET GST-Vif / biotin-A3G peptide binding; higher % means a stronger effect; test concentration not given here; strong numbers were not always called active | inhibition, %, or IC50 in µM where a hit was titrated | 260,000 compounds, 0.57% hits;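 active means above the screen mean plus three standard deviations and confirmed in dose response; inconclusive means results disagree or hit not tested in dose response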;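 further: Vif residues 1-94 fused to GST binding biotinylated APOBEC3G peptide 110-148; 0% = full assay without inhibitor and 100% = GST in place of GST-Vif; retest series ran down from 100 µM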
Beta apoptosis – beta cell apoptosis inhibition; INS-1E cytokine-induced death, ATP luminescence, 48 h; percent of positive-control rescue, neutral wells zero; protection from apoptosis, % (concentration not given with the values); 300,000 compounds, 0.8% hits; AID 435005;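 active means all replicates at 75% or more, or half of them and the mean; inconclusive means half reach 75% but not the mean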;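 further: 0% = cytokine-treated negative control wells and 100% = positive control rescue; higher means more ATP so stronger rescue from cytokine killing; wells of about 40 µL received 100 nL stock; the first replicate is given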
AF4-AF9 inh – blocks AF4 peptide binding to human AF9. P42568. AlphaScreen, biotin-AF4 peptide binding to FLAG-AF9. inhibition, % at 10 µM. 350,000 compounds, 0.47% hits. AID 651704;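 active means every replicate reaching a set inhibition limit, whatever the replicate mean, cut at about 25% in these data; inconclusive means mean inhibition reaches that limit but some replicates miss it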;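 further: 0% = plate neutral control median and 100% = total signal loss; the record names both 10 and 1 µM as test concentration; the first replicate is given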
Target sequence (P42568 whole entry, looked up): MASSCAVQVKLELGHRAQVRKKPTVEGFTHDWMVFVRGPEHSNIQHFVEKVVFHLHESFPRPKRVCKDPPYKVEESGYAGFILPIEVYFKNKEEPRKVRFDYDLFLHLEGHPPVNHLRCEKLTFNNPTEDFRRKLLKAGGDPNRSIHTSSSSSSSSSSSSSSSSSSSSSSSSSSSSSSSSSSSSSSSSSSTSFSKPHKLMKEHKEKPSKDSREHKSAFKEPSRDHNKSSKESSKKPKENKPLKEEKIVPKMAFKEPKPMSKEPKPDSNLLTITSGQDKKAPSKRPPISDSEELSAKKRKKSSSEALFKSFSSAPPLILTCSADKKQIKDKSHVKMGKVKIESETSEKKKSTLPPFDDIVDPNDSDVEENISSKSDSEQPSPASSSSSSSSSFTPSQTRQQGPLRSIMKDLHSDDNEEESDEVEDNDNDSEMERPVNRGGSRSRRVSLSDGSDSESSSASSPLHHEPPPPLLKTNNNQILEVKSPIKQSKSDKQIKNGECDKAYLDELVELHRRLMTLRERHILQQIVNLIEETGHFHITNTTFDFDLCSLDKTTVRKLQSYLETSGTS
Bfl-1 A1 inh – inhibitors of the anti-apoptotic protein A1, read as caspase activation. AID 2462. caspase activation, % (concentration not given with the values). 330,000 compounds, 0.066% hits. MEF A1-2A-BIM cells, Caspase-Glo 3/7 luminescence, 3 h; percent of clofoctol response, vehicle zero;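 active means over half of replicate activation scores above 10%, or exactly half above 10 with the replicate mean above 10; inconclusive means replicate mean below 10 yet half the replicates above 10; inactive means over half of replicates below 10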;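 further: wells of about 30 µL received 50 nL stock; many hits fall short of the cut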
T cruzi inh – T. cruzi replication inhibition; T. cruzi beta-gal in NIH3T3, luminescence, 90 h; AID 1885; inhibition, % (test concentration not listed); 300,000 compounds, 1.4% hits;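 active means mean inhibition across valid replicates above about 55%, limit read from the data; inconclusive means mean below that limit but half or more replicates reach it; inactive means mean below it, under half of replicates reach it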;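 further: signal also drops with host cell toxicity which is not excluded here; 0% = plate median of DMSO wells and 100% = zero luminescence signal; higher percent means less beta-gal luminescence so fewer parasites; stock transfer was 50 nL into about 50 µL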
rRNA inh HTS OD600 – further read-out of rRNA inh HTS, marked with its call; OD600 change, %; measured here: OD600 growth;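 optical density of the mix in the first replicate; 0 = DMSO median and -100 = no signal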
rRNA inh HTS RFP – recorded beside rRNA inh HTS, whose call it bears; RFP signal change, %; measured here: RFP humanized mutant strains;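 first replicate; 0 = DMSO median and -100 = no signal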
The depositor's hits bear a star; ? = inconclusive; . = not tested or not shown; & = joins results of further samples.

Every second line gives: Calb FLC	rRNA inh HTS	rRNA inh HTS OD600	rRNA inh HTS RFP	RanGTP-Imp inh	Vif TR-FRET	Beta apoptosis	AF4-AF9 inh	Bfl-1 A1 inh	T cruzi inh
O=C(CCCOc1ccccc1)OCn1nnc2ccccc2c1=O
  -6	3	-3	-5.2	2.4	-2%	-2	-5.0	-0.3	-7
CN(C(=O)c1ccc2c(=O)n3c(nc2c1)CCCCC3)c1cccc(Cl)c1
  -1	-7	-13	1.6	0.1	.	-3	3.9	0.3	19
O=S(=O)(c1cccc(NC(=S)N2CCN(c3ccccc3F)CC2)c1)C(F)F
  -29	-3	-7	-1.4	?	.	-5	-1.1	-0.3	-12
COc1cc(/C=N/NC(=O)c2ccccn2)ccc1OC(=O)c1ccc(Br)cc1
  0	7	18	-0.6	4.7	.	-6	-1.0	1.0	-30
Cn1c(=O)c2c(ncn2Cc2ccccc2)n(C)c1=O
  7	.	.	.	-4.3	-2%	.	-6.4	.	-35
Cc1ccc(CN2CCC(=O)N2)cc1
  -3	10	12	-0.4	1.6	-4%	-9	0.7	0.1	-7
O=C(COc1ccccc1F)Nc1ccc(S(=O)(=O)Nc2nccs2)cc1
  -2	2	10	-1.5	3.6	.	5	0.6	-0.8	1
CN1CCN(CCCCOc2ccccc2C=O)CC1
  -8	7	14	1.2	2.5	3%	-6	33*	0.4	37
O=C(c1cccc(NS(=O)(=O)c2ccccc2)c1)N1CCCC1
  19	15	18	2.5	-0.8	.	-3	-0.6	0.4	-7
COc1ccc(Nc2c3c(nc4ccccc24)CCC3)cc1
  -3	-6	-5	1.4	7.5	6%	31	9.3	0.4	29
COc1ccc(CCC(C)NC2CCCCCCC2)cc1 (stereo unspecified)
  -4	8	5	-0.9	-0.5	4%	7	-4.1	-0.5	22
Cc1ccc(SCCN2CCC(C(C)(C)C)CCC2=O)cc1 (stereo unspecified)
  -17	-7	-14	-11	?	.	-4	-1.7	-0.9	16
Cc1nc2ccc(NC(=O)c3ccc([N+](=O)[O-])cc3[N+](=O)[O-])cc2s1
  -1	-6	-1	-6.6	0.1	-4%	9	4.6	-0.6	79*
COc1ccccc1-c1nc(C#N)c(N2CCN(C(=O)c3ccco3)CC2)o1
  3	7	7	1.2	-2.5	-8%	-7	0.1	-0.1	-10
CC(=O)Nc1ccc(-c2csc(NNC(=O)c3ccccc3)n2)cc1
  -7	-7	7	-8.6	2.2	?	0	14	-2.0	9
CCOc1ccccc1NC(=O)COC(=O)c1ccccc1SCC(=O)N1CCCC1
  2	9	11	-5.1	5.4	-33%	.	-1.8	-1.0	-5
COC(=O)c1ccc(C)c(NC(=O)CCNC(=O)c2ccc([N+](=O)[O-])cc2)c1
  -5	.	.	.	3.2	13%	7	.	0.2	9
CC1CCN(Cc2c(O)ccc3c(=O)c(-c4nc5ccccc5s4)c(N)oc23)CC1
  -7	5	7	6.8	-1.1	1%	2	4.3	0.9	28
O=C(C1CCC(CNc2nc(=S)[nH]c3ccccc23)CC1)N1CCN(c2ccc(F)cc2)CC1 (stereo unspecified)
  -20	-14	-2	2.0	0.2	.	.	8.7	.	22
Cn1nc(C(=O)NCCCN2CCCCC2)c2c1-c1ccccc1SC2
  3	9	3	2.4	?	.	1	2.7	-0.6	25
CCc1sc(N(C(=O)Cc2ccccc2)c2cccc(F)c2)nc1-c1ccc(C)cc1
  -23	.	.	.	-4.1	-3%	2	.	-0.2	10
COc1ccc(CCN(Cc2cc3cc(C)cc(C)c3nc2Cl)C(=O)C2CC2)cc1
  0	.	.	.	-0.3	1%	-4	.	2.3	-7
CC(=O)OCC(CCn1cnc2cnc(N)nc21)COC(C)=O
  .	.	.	.	8.5	-3%	-4	.	2.6	-4
CC(=O)Nc1ccc2[nH]c(C)cc(=O)c2c1
  -5	.	.	.	-1.3	2%	-7	.	-0.1	-8
CCOC(=O)N1CCC(NS(=O)(=O)c2ccc3c(c2)oc(=O)n3C)CC1
  -9	.	.	.	1.1	-1%	.	.	-1.1	-22
COC(=O)c1cccc(CSc2nnc(-c3ccco3)n2-c2ccccc2)c1
  6	.	.	.	-2.5	8%&0%	-9	.	-0.8	12
CCCCN(CCCC)Cc1cc2ccccc2c2c1COC2
  -8	.	.	.	-0.6	6%	8	.	-0.6	-8
O=[N+]([O-])c1cccc(S(=O)(=O)NCCc2ccccc2)c1
  -3	18	5	-0.4	-6.6	.	2	3.4	1.3	-5
O=C(CN(Cc1ccc(F)cc1)C(=O)CNS(=O)(=O)c1ccc(F)cc1)NCC1CCCO1 (stereo unspecified)
  -2	6	15	0.6	2.2	3%	-6	-2.3	0.2	-6
CN(C(=O)c1cccc(NC(=O)Cc2ccc([N+](=O)[O-])cc2)c1)C1CC1
  .	2	10	-4.7	.	.	1	2.0	-1.4	.
CCOc1ccc(N(C)C(=O)CCc2nnc3ccc(N4CCOCC4)nn23)cc1
  5	-1	8	0.4	1.3	.	-1	?	-0.2	-24
Cc1ccccc1-n1ncc2c1CC(C)(C)CC2NC(=O)C1=CC(=O)CC(C)(C)O1 (stereo unspecified)
  -2	-4	-5	2.1	-0.3	.	8	1.3	0.0	6
CCCCn1c(N)c(N(CCC(C)C)C(=O)c2cc(-c3ccco3)nc3ccccc23)c(=O)[nH]c1=O
  6	1	4	-1.1	7.4	.	-10	-5.6	0.1	-7
O=C(COC(=O)/C=C/c1ccc(Cl)cc1Cl)NCCC1=CCCCC1
  13	.	.	.	2.0	.	-1	.	1.4	-22
CCC[C@@H](CN[C@@H](CNC)C(C)C)NCCCCc1ccccc1
  -14	5	-10	9.2	1.9	.	10	3.2	-0.2	-24
Cc1cccc(NC(=O)c2ccc(C(=O)c3ccccc3)o2)c1
  4	-6	0	-2.5	-1.2	-4%	-3	0.3	-0.8	0
CCC1(C)Nc2ccccc2C(=O)N1O (stereo unspecified)
  27	.	.	.	1.5	5%	0	.	-0.2	-16
CC(=O)c1ccc(N(C(=O)CNC(=O)c2ccco2)C(C(=O)NC2CCCC2)c2ccc(C)o2)cc1 (stereo unspecified)
  19	1	7	0.1	6.2	3%	-1	-2.6	-0.2	2
COc1cc(S(=O)(=O)Nc2ccccc2C(=O)N2CCCCC2)ccc1NC(C)=O
  .	18	7	-0.3	.	.	-3	-5.2	-0.2	.
COc1ccc(OC)c(C2=Nn3c(nnc3-c3cc(OC)c(OC)c(OC)c3)SC2)c1
  -12	.	.	.	0.7	29%	25	.	0.0	37
Cc1cccc([C@@H]2[C@@H]3C(=O)N(Cc4ccccc4)C(=O)[C@@H]3[C@]3(Cc4ccc(Cl)cc4)C(=O)N(c4cccc(Br)c4)C(=O)N23)c1
  10	2	7	-11	-3.5	.	2	1.6	-0.7	-19
CCN(CC)S(=O)(=O)c1ccc(Cl)c(C(=O)Nc2cc(C)nn2-c2ccccc2)c1
  -5	.	.	.	0.5	?	-7	1.0	-0.1	-3
COc1cccc(OCCN2CCN(c3ncnc4c3cnn4-c3ccccc3)CC2)c1
  22	.	.	.	1.4	-5%	.	.	-0.3	36
Cc1noc(C)c1COc1ccc(C(=O)OCC(=O)Nc2ccc3c(c2)OCO3)cc1
  4	.	.	.	-3.5	-6%&26%	-7	.	0.4	-19
COc1ccc(C2=NOC(C(=O)NCc3ccco3)C2)cc1 (stereo unspecified)
  6	.	.	.	7.5	24%	5	.	-0.5	-58
Cc1ncc([N+](=O)[O-])n1Cc1ccccc1F
  -16	-4	1	0.5	-3.4	1%	-6	3.4	-0.3	-30
CC(C)(C)c1nc2cc(Cl)c([N+](=O)[O-])cc2o1
  61	-14	2	-0.5	-2.3	.	2	-2.1	0.9	-3
COc1ccc(NC(=O)C2CCN(C(=O)[C@@H]3Cc4ccccc4CN3C(=O)OC(C)(C)C)CC2)cc1
  6	1	-3	1.0	-0.7	.	-3	-1.1	1.6	0
COc1ccc(CN2CCN(C(=O)C3CCN(C(=O)Nc4ccccc4)CC3)CC2)cc1OC
  .	24	24	6.9	.	.	-2	-2.9	-0.3	.
O=P(CO)(Cc1ccccc1)Cc1ccccc1
  -1	.	.	.	-3.1	0%	-4	.	0.7	1

(continued)
Every second line gives: Calb FLC	rRNA inh HTS	rRNA inh HTS OD600	rRNA inh HTS RFP	RanGTP-Imp inh	Vif TR-FRET	Beta apoptosis	AF4-AF9 inh	Bfl-1 A1 inh	T cruzi inh
CCN(CCO)C(=O)CC(c1ccccc1)c1cc(Br)ccc1O (stereo unspecified)
  7	.	.	.	-2.0	21%	.	.	1.1	-9
Cc1ccccc1NC(=O)/C(C#N)=C\c1ccsc1
  -1	8	11	3.7	-3.3	26%	-4	0.8	0.0	-1
CCCCCc1nc2c(c3c1CCCC3)CCCC2
  -8	1	-7	-1.4	7.2	-17%	21	0.7	0.8	-6
CSCC[C@H](NC(=O)N1CCn2c1nc1ccccc12)C(=O)NC1CC1
  0	5	4	3.2	-0.1	.	-8	-3.5	0.2	1
COCCn1c(CN(Cc2ccccc2)Cc2ccccc2)nc2c1c(=O)n(C)c(=O)n2C
  10	.	.	.	-1.0	29%	3	.	-0.2	17
O=C(Cn1cnc2c(nnn2-c2ccccc2)c1=O)NCc1ccco1
  1	-4	-13	2.8	-0.5	-2%	-3	4.6	0.9	-33
CC(C)NS(=O)(=O)c1ccc(OCC(=O)Nc2cccc3ccccc23)cc1
  -2	.	.	.	-1.8	1%	3	.	-0.7	-16
CCN(C(=O)c1cc2c(s1)-c1ccccc1S(=O)(=O)C2)c1cc(OC)ccc1OC
  9	-9	-27	0.3	2.1	.	7	0.0	-0.6	23
CCOC(=O)c1sc(-c2ccccc2)cc1NC(=O)CSc1nnnn1C
  .	.	.	.	3.6	-4%	0	.	0.3	28

These rows are one share of the data, so the mix of outcomes need not match the whole.
